# 2A StopGo – lowers the luciferase signal of an FMDV 2A StopGo reporter | human cells with a luciferase reporter of 2A StopGo recoding; control for the full effect not named in the record | Potency, µM (series often up to 57.9 µM), for inactives: at the highest dose signal change, negative = less light | 410,000 compounds, 1.2% hits; active = well fitted falling curve with a large enough effect; inconclusive = small, poorly fitted or top-dose-only effect; inactive = no such curve, though single readings can be large or run the other way; tested in HEK293T cells; note: % is set by controls: 0 for no effect and ±100 for the full control effect; nearly all actives have a fitted effect of over 45% in size; luciferase light after 4 h
# LASV entry inh – blocks Lassa virus binding to or entry into cells. Lassa virus pseudotype entry inhibition, cell reporter; control for the full effect not named in the record. Potency, µM (titrated, usually from 37.9 µM), for the others: at the highest dose activity change, negative = inhibition, actives largely listed as inhibitors. 300,000 compounds, 1.2% hits. AID 540256; active means well fitted inhibition curve with a large enough effect; inconclusive means small, poorly fitted or top-dose-only effect, or effect the other way; inactive means flat fitted curve, though single readings scatter; tested in HEK293 cells; note: % is set by controls: 0 for no effect and ±100 for the full control effect; nearly all actives have a fitted effect of over 50% in size; luciferase read-out
# SARS PLP yeast – SARS-CoV PLP inhibition in yeast; S. cerevisiae expressing SARS-CoV PLpro, growth rescue; control for the full effect not named in the record; Potency, µM (highest dose often 32.9 µM), inactives show at the top dose activity, positive = growth rescue; 330,000 compounds, 0.19% hits; note: 0% is about no effect; nearly all actives have a fitted effect of over 55% in size; growth read by luminescence after 48 h
# Marburg entry inh – inhibitors of Marburg virus binding or cell entry; Marburg virus pseudotyped entry inhibition, cell reporter; control for the full effect not named in the record; about a third of the inactives were read at about 46 µM; Potency, µM (titrated, usually from 37.8 µM), without a hit: top-dose activity change, negative = inhibition, usual class: inhibitors; 300,000 compounds, 1.8% hits; active = well fitted inhibition curve with a large enough effect; inconclusive = small, poorly fitted or top-dose-only effect, or effect the other way; inactive = flat fitted curve, though single readings scatter; tested in HEK293 cells; about a fifth of its hits are not listed in these tables; note: % is set by controls: 0 for no effect and ±100 for the full control effect; luciferase read-out
# NS1 function inh – inhibitors of influenza NS1 protein function; S. cerevisiae slowed by influenza A NS1, growth recovery by OD600; Potency, µM (series often up to 46.1 µM), for inactives: top-dose activity, positive = more growth; 270,000 compounds, 0.4% hits; AID 2326; note: actives are rising curves; nearly all actives have a fitted effect of over 50% in size
#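 Recovery from NS1-induced slow growth read by OD600 in budding yeast switched to galactose assay medium (pH 6.0, -URA) at 1:100 dilution. Compound 23 nl per well; the matching strain lacking NS1 serves as control.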
# Cruzain inh noDet – cruzain (T. cruzi) inhibition without detergent. purified cruzain, Z-FR-AMC fluorescence, no detergent. Potency, µM, for inactives: max response, negative = inhibition, actives largely listed as inhibitors. 200,000 compounds, 2.3% hits; active = well fitted curve in the direction sought with a large enough effect; inconclusive = small, poorly fitted or top-dose-only effect, or another doubt; inactive = no such curve, though single readings can be large; an effect the other way counts as inactive or inconclusive;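 note: plate controls were enzyme without inhibitor for no effect and buffer without enzyme for full effect; nearly all actives have a fitted effect of over 40% in size; top concentration of the series not given in the record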
# Target sequence (P25779 123-467 limits assumed): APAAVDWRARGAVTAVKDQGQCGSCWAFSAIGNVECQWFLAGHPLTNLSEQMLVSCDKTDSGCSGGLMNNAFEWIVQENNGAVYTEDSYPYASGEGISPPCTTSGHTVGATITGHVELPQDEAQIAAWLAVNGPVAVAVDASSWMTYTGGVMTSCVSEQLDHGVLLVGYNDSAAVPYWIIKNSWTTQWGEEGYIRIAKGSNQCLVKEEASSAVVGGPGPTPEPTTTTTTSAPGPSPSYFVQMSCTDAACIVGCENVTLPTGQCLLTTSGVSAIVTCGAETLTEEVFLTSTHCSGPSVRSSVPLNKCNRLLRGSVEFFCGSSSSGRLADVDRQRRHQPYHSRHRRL
#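 Detergent-free condition (0.00005% Triton X-100) in acetate buffer pH 5.5 with DTT. 1.5 nM enzyme and compound were pre-mixed 15 min, then 2 uM Z-FR-AMC substrate added; reaction progress from fluorescence change between first and third reads (60 s).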
# Cruzain Triton – cruzain (T. cruzi) inhibition with detergent; 200,000 compounds, 0.43% hits; P25779; Potency, µM, without a hit: max response, negative = inhibition, usual class: inhibitors; purified cruzain, Z-FR-AMC fluorescence, 0.01% Triton; active = well fitted curve in the direction sought with a large enough effect; inconclusive = small, poorly fitted or top-dose-only effect, or another doubt; inactive = no such curve, though single readings can be large; an effect the other way counts as inactive or inconclusive;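 note: plate controls were neutral wells for no effect and buffer without enzyme for full effect; nearly all actives have a fitted effect of over 40% in size; top concentration of the series not given in the record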
#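 Detergent-containing run (0.01% Triton X-100) in acetate buffer pH 5.5 with 5 mM DTT: enzyme at 1.5 nM final, 15 min compound preincubation at room temperature, then 2 uM Z-FR-AMC substrate. Activity taken as 60 s fluorescence increase at 360/450 nm.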
# RE007 growth inh – less growth of the S. pombe RE007 Vpr strain; S. pombe RE007 Vpr strain, BacTiter-Glo ATP luminescence, 24 h; control for the full effect not named in the record; Potency, µM (doses to about 92.2 µM), without a hit: at the highest dose activity change, negative = less growth; 360,000 compounds, 0.21% hits; active = well fitted falling curve with a large enough effect; inconclusive = small, poorly fitted or top-dose-only effect; inactive = no such curve, though single readings can be large or run the other way;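 note: % is set by controls: 0 for no effect and ±100 for the full control effect; nearly all actives have a fitted effect of over 50% in size; the assay follows cell death caused by Vpr and the record does not say whether a fall means rescue or toxicity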
#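 Fission yeast RE007 carrying one integrated HIV-1 vpr copy, seeded at OD 0.01 in PMG+AL medium with 23 nL pinned compound. Grown 24 h at 30 degrees; viability read by BacTiter-Glo luminescence after 5 min.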
# The depositor's hits bear a star; u = inconclusive; x = not tested or not shown; & = joins results of further samples; [ ] = remark or other dose. Unless noted, calls come from the whole dose curve; as a rule, active means well fitted rising curve with a large enough effect; inconclusive means small, poorly fitted or top-dose-only effect; inactive means no such curve, though single readings can be large or run the other way. Potency is the fitted concentration of half-maximal effect.
no. | mol | 2A StopGo | LASV entry inh | SARS PLP yeast | Marburg entry inh
1 | CSc1nc2ccc(NC(=O)c3c(-c4ccccc4)noc3C)cc2s1 | -29% | u | 1% | u
2 | CCc1nn(C(C)C(=O)NCc2ccc(Cl)cc2)c(=O)c2cc3occc3n12 (configuration not stated) | 7% | u | -3% | -18%[46.1 µM]
3 | COc1ccc(S(=O)(=O)NCC(c2ccc(F)cc2)N2CCOCC2)cc1Br (configuration not stated) | 31%[activator] | -25% | -1% | 4%
4 | COc1ccc(NC(=O)CSc2nc3ccsc3c(=O)n2CCCCCC(=O)O)cc1 | -1% | 24% | 1% | 20%[46.1 µM]
5 | Cc1cc(F)ccc1S(=O)(=O)N(CC(=O)N1CCOCC1)CC(=O)N1CCOCC1 | 3% | 2%[46.1 µM] | 1% | 15%[46.1 µM]
6 | CCCCCn1c(=O)c(C(=O)Nc2cc(C)ccn2)c(O)c2ccccc21 | -12% | u | -1% | 17%
7 | Cc1ccc(NC(=O)NNC(=O)Cn2nc(-c3ccccc3)c(-c3ccccc3)c(C#N)c2=O)cc1 | 0% | u | -1% | u
8 | CC(C)CNC(=O)c1cccc(NC(=O)C(C)C)c1 | -6% | -1%[46.1 µM] | 1% | 1%[46.1 µM]

no. | NS1 function inh | Cruzain inh noDet | Cruzain Triton | RE007 growth inh
1 | -4% | x | x | 29%
2 | -5% | x | x | 7%
3 | x | x | x | 0%
4 | x | x | x | 7%
5 | x | x | x | -4%
6 | -8% | x | x | 32%
7 | u | 9% | -7.3% | 11%
8 | x | x | x | -21%

# (continued)
no. | mol | 2A StopGo | LASV entry inh | SARS PLP yeast | Marburg entry inh
9 | Cc1ccc(NC(=O)C(C)N=C2NS(=O)(=O)c3ccccc32)cc1F (configuration not stated) | 12% | -2% | -1% | 2%
10 | c1ccc(N2CCN(Cc3nnnn3C3CCCCC3)CC2)cc1 | x | 2% | -2% | -16%
11 | CCOC(=O)c1scc(-c2ccc(C)cc2)c1S(=O)(=O)Nc1cc(Cl)ccc1OC | 1% | u | x | x
12 | Cc1nc2nc(SCC(=O)C(C)(C)C)[nH]c2cc1Br | -21% | u | 0% | 25%
13 | COCCNC(=O)c1ccc(S(=O)(=O)c2ccc(Cl)cc2)c(NC(C)=O)c1 | -16% | x | 0% | x
14 | CN(CC(=O)Nc1ccccc1Cl)C(=O)c1cccc(S(=O)(=O)N2CCN(c3ccccc3)CC2)c1 | u | u | x | u
15 | C/C=C/c1ccc(OCCOc2cc(C=O)ccc2OC)c(OC)c1 | 44%[activator] | 16% | -19% | -11%
16 | CC(=O)c1ccc(S(=O)(=O)N2CCN(C(=O)/C=C/c3ccc4ccccc4n3)CC2)cc1 | -20% | x | -2% | x

no. | NS1 function inh | Cruzain inh noDet | Cruzain Triton | RE007 growth inh
9 | 6% | x | x | -7%
10 | -7% | 8% | 5.1% | 4%
11 | x | 1% | 0.6% | x
12 | -2% | -7% | 1.8% | u
13 | 1% | x | x | -1%
14 | x | x | x | 1%
15 | -11% | 3% | -2.2% | -6%
16 | 5% | x | x | 9%

# Remaining list, next part
no. | mol | 2A StopGo | LASV entry inh | SARS PLP yeast | Marburg entry inh
17 | Clc1ccc(-c2cc(C3CCNCC3)[nH]n2)cc1 | -8% | -22% | -8% | u
18 | COc1ccccc1NC(=O)c1cccc2c(Br)cccc12 | -15% | x | 0% | x
19 | COc1ccc(-n2c(SCC(=O)Nc3ccc(C(N)=O)cc3)nc3c([nH]c4ccccc43)c2=O)cc1OC | -11% | x | 0% | x
20 | CCOc1ccc(NC(=O)CN(C)C(=O)c2cccnc2Sc2ccc(C)cc2C)cc1OCC | u | -21% | x | -2%
21 | O=C(c1cc(-c2ccncc2)nc2ccc(Br)cc12)N1CCN(Cc2ccc3c(c2)OCO3)CC1 | u | -12% | -2% | u
22 | COC(=O)c1ccccc1NC(=O)CN(c1ccc(OC)cc1)S(C)(=O)=O | -15% | -16% | 17% | -20%
23 | O=C(CCN1CCCCC1)c1ccccc1 | 14% | 0% | 5% | 26%
24 | CCOc1ccc(S(=O)(=O)N(CC(=O)NCCSCc2ccccc2)c2ccccc2)cc1 | -12% | 25%[46.1 µM] | x | 1%[46.1 µM]

no. | NS1 function inh | Cruzain inh noDet | Cruzain Triton | RE007 growth inh
17 | x | x | x | -4%
18 | 7% | x | x | -13%
19 | 17% | x | x | -2%
20 | x | x | x | -7%
21 | -2% | x | x | -1%
22 | -17% | 15% | -4.0% | -12%
23 | 14% | -13% | -4.9% | -9%
24 | x | -2% | -1.1% | x

# Continuation:
no. | mol | 2A StopGo | LASV entry inh | SARS PLP yeast | Marburg entry inh
25 | Cc1cccc(C(=O)O/N=C(\N)c2cccc([N+](=O)[O-])c2)c1 | 44%[activator] | 8% | -5% | u
26 | Cc1ccc(C)c(N2CCN(S(=O)(=O)c3ccc4c(c3)oc(=O)n4C)CC2)c1 | 2% | 9% | 13% | -23%
27 | O=C(O)/C=C/c1ccc(S(=O)(=O)NCc2ccco2)cc1 | 4% | 1%[46.1 µM] | 3% | -5%[46.1 µM]
28 | Cn1cccc1/C=N/N1CCN(c2ccccc2)CC1 | 30%[activator] | 13% | -1% | 0%[46.1 µM]
29 | CC1Sc2ccc(C(=O)N3CCCC(C(F)(F)F)C3)cc2NC1=O (configuration not stated) | -29% | -9% | 2% | -7%[46.1 µM]
30 | CSC(=NNC(=O)c1ccc(O)cc1)SC | 0% | 30% | 7% | 3%
31 | NC(=O)C1(N2CCCCC2)CCN(C(=O)Nc2ccc(Cl)c(Cl)c2)CC1 | -20% | 7%[46.1 µM] | x | 1%[46.1 µM]
32 | CSc1ccc(-c2nc(CN(C)C3CCOC3)c(C)o2)cc1 (configuration not stated) | 12% | 18%[46.1 µM] | 1% | u

no. | NS1 function inh | Cruzain inh noDet | Cruzain Triton | RE007 growth inh
25 | -30% | 0% | -1.8% | -16%
26 | 11% | 4% | 2.7% | 9%
27 | x | x | x | 1%
28 | x | x | x | -21%
29 | x | x | x | 15%
30 | -6% | -3% | 2.6% | 4%
31 | x | -2% | -1.0% | x
32 | -5% | x | x | -21%

# Remaining list, next part:
no. | mol | 2A StopGo | LASV entry inh | SARS PLP yeast | Marburg entry inh
33 | COc1ccc(N2CCN(C(=N)/C(C(C)=O)=C(\C)O)CC2)cc1 | 11% | 14% | 5% | 4%
34 | CC(C)NC(=O)C1(c2ccccc2)CCOCC1 | 7% | -5% | 5% | 24%
35 | CC(NC(=O)CCn1c(=O)c2cccn2c2ccc(F)cc21)c1ccccc1 (configuration not stated) | -10% | -1%[46.1 µM] | x | x
36 | C[C@H]1[C@H]2c3nc4ccccc4n3C[C@H]1ON2C1CCCCC1 | -12% | x | 7% | x
37 | CCN1C(=O)C(C)S/C1=N\S(=O)(=O)c1ccc(Cl)s1 (configuration not stated) | -12% | 11% | 6% | u
38 | O=C(CC1Nc2cccc3cccc(c23)NC1=O)Nc1ccccc1 (configuration not stated) | -13% | 4% | 5% | 3%
39 | Cn1ncc(Br)c1NC(=O)CSc1ccc(Cl)cc1 | u | x | 5% | x
40 | COc1ccc(S(=O)(=O)NCC(=O)N(CC(=O)NCc2ccco2)C2CCCC2)cc1 | 18% | 3% | 6% | 24%[46.1 µM]

no. | NS1 function inh | Cruzain inh noDet | Cruzain Triton | RE007 growth inh
33 | 7% | 3% | 4.4% | -9%
34 | 7% | -5% | 8.3% | 6%
35 | x | 6% | -3.2% | x
36 | -6% | x | x | 0%
37 | -9% | -16% | 4.6% | 9%
38 | 29% | -14% | -8.4% | 2%
39 | -4% | x | x | -5%
40 | -7% | x | x | 0%

# Next records:
no. | mol | 2A StopGo | LASV entry inh | SARS PLP yeast | Marburg entry inh
41 | O=C(NC1CCCC1)C(c1ccncc1)N(C(=O)c1csnn1)c1cccc(F)c1 (configuration not stated) | -3% | 0% | 0% | -19%[46.1 µM]
42 | CC(C)OCCCN1C(=O)c2[nH]nc(-c3ccccc3O)c2C1c1ccccc1F (configuration not stated) | 0% | u | x | u
43 | O=C(COc1ccc(Cl)cc1Cl)Nn1c(=S)[nH]c2ncccc2c1=O | 8% | u | -19% | 3%
44 | COc1cc(/C=C2\SC(=Nc3ccc(O)cc3)NC2=O)cc(OC)c1OC | -7% | u | -2% | u
45 | Clc1ccc(-c2nc3ccccn3c2CN2CCOCC2)cc1 | 10% | 16% | -28% | 17%
46 | O=C(NCCCCCCNC(=O)c1ccccc1O)c1ccccc1O | u | 20% | 0% | u
47 | Cc1cccc(NC(=O)CSc2nnc(-c3ccccc3C)o2)c1 | 14% | -1% | 6% | -16%&-16%
48 | COC(=O)[C@@]1(Cc2ccc(OC)cc2)[C@H]2c3cc(C(=O)N4CCCC4)n(CCSCCO)c3C[C@H]2CN1C(=O)c1ccccc1 | -28% | -4% | 1% | -3%

no. | NS1 function inh | Cruzain inh noDet | Cruzain Triton | RE007 growth inh
41 | -14% | x | x | 9%
42 | x | -1% | -11% | x
43 | -2% | -2% | -0.9% | 10%
44 | -2% | x | x | -2%
45 | -15% | -2% | 1.8% | -26%
46 | 8% | x | x | 5%
47 | -4% | 0% | -12% | 10%
48 | -25% | u | -5.2%&0.2% | -7%

# Screens from PubChem.
